# Sa ugtP lethal = growth inhibition of ugtP-null S. aureus, primary screen, RN4220 ugtP deletion, OD600. 330,000 compounds, 0.54% hits. 16 h; some inactives read as strong as hits. growth inhibition, % (concentration not given with the values);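 active = z-score under -3 and OD600 up to 0.15 on both plates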;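 note: plate controls were untreated wells for no effect and antibiotic for full effect; wells of about 80 µL received 100 nL stock; the first replicate is given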
# PrP 5UTR inh = inhibition of PrP 5' UTR reporter expression; 340,000 compounds, 0.35% hits; inhibition, % (no concentration beside the values); cell-based PrP 5' UTR mRNA reporter, plate reader; AID 488862, 2010;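 active = every replicate at 50% or more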;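 note: 0 = median of the neutral control wells; tested in H4 reporter cells; numbers are from one replicate; inactives centre near -14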
# RN4220 kill = growth inhibition of S. aureus RN4220, primary screen, OD600; AID 1259311, 2017; 16 h; 330,000 compounds, 0.33% hits; inhibition, % (no concentration beside the values);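 active = z-score of -3 or lower and OD600 up to 0.18 on both plates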;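 note: plate controls were untreated cells for no effect and reference antibiotic for full effect; stock transfer was 100 nL into about 80 µL; one replicate is shown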
# BJeLR viability = MLPCN primary cell-based screen for lethality selective to Ras in HRASV12 cells. BJeLR (HRASV12) viability, CellTiter-Glo ATP luminescence, 48 h; reference of the scale not given here. inhibition, % (test concentration not listed). 300,000 compounds, 0.17% hits. AID 1554, 2009;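 active = replicate mean above 50%; inconclusive = above 50% but judged a plate artefact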;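 note: 50 nL library stock added to about 25 µL; numbers are from one replicate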
# Bead autofluor = flagged as autofluorescent in microsphere protease counterscreen | fluorescence intensity (test concentration not listed) | 360,000 compounds, 3.1% hits | AID 624483 | compound autofluorescence counterscreen, microsphere flow cytometry; active compounds read high;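 active = at least 3 SD above the mean of all compounds, about 16000 in these data; inconclusive = too few beads counted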;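 note: 100 nL of 1 mM stock went into each well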
# Mtb hypoxia rep = PubChem AID 1159583; M. tuberculosis hypoxia-regulated fluorescent reporter, fluorescence; fluorescence inhibition, % (no concentration beside the values); 300,000 compounds, 0.1% hits;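 active = 35 to 45% if threefold the growth effect, above 45% if 1.5-fold the growth effect; inactive = the rest, general growth blockers included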;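 note: wells of about 50 µL received 100 nL stock; 0% = vehicle wells and 100% = reference inhibitor wells; whole bacteria with a GFP reporter of the hypoxia response; strong numbers were not always called active; many hits fall short of the cut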
# Mtb hypoxia rep growth = recorded beside Mtb hypoxia rep, whose call it bears; growth inhibition, %; measured here: M. tuberculosis growth (absorbance);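 0% = vehicle and 100% = reference antibiotic; read after six days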
# * = called active by the depositor; ? = inconclusive; / = not tested or not shown. The order is random (roughly 4% active in at least one column).
SMILES,Sa ugtP lethal,PrP 5UTR inh,RN4220 kill,BJeLR viability,Bead autofluor,Mtb hypoxia rep,Mtb hypoxia rep growth
Cc1ccc(CN2CCN(C(=O)C3CCCO3)CC2)cc1 (stereo not drawn),7,-23,7.5,-6,7551,13,6
CC(=O)NC(c1ccco1)c1cc(Cl)c2ccc(Cl)nc2c1O (stereo not drawn),0,-29,3.2,/,3910,5,10
CCOC(=O)[C@@H]1[C@H]2COc3ccc(Br)cc3[C@@H]2N2C(=O)N(c3ccc(C(F)(F)F)cc3)C(=O)[C@]12C,/,-27,/,9,3555,/,/
OCCN(CCO)c1ccc(C(c2ccc(Cl)cc2)c2ccc(N(CCO)CCO)cc2Cl)c(Cl)c1,2,-15,-8.3,-1,2457,-1,4
COc1ccc(C=NOCC(=O)Nc2ccc3c(c2)OCO3)c(OC)c1,3,/,7.3,/,/,-1,0
CC1(C)CC(=O)C(N=Nc2ccc(S(=O)(=O)N3CCCCCC3)cc2)=C(O)C1,-2,-14,2.5,-11,2675,5,10
CCC(C)N(C(=O)Cn1nnc(-c2ccc(F)cc2)n1)C1CCS(=O)(=O)C1 (stereo not drawn),-1,-28,4.0,3,?,2,0
O=C(Nc1cccnc1)c1cc2nc(C3CC3)cc(C(F)(F)F)n2n1,-1,-16,2.0,-4,2815,/,/
O=C(NCc1ccc(F)cc1)c1cccnc1C(=O)O,17,-14,-3.5,0,3344,6,8
Cn1c(C(=O)NCc2cccs2)cc2oc3ccccc3c21,45,-30,-4.7,18,2551,-1,7
Cc1nnc(NC(=O)C(C)Sc2nnc(-c3ccco3)n2C(C)C)s1 (stereo not drawn),6,-11,2.0,3,3516,3,4
O=c1cc(-c2ccccc2)oc2cc(O)c(O)c(O)c12,3,-55,8.4,/,4290,/,/
Nc1nc(N)c2nc(-c3ccccc3)c(N)nc2n1,36,-9,8.4,-3,5833,9,5
O=C(CCCc1ccccc1)Nc1nncs1,-7,-16,-4.0,-3,2834,6,8
CC(Oc1ccccc1)C(=O)Nc1nnc(C2CCCCC2)s1 (stereo not drawn),3,-18,-9.3,2,2499,9,3
O=S(=O)(c1ccc(-c2ccon2)s1)N1CCCC1,2,7,2.4,4,4406,15,11
COc1cccc(NC(=O)N2CCCC2C(=O)NC23CC4CC(CC(C4)C2)C3)c1 (stereo not drawn),3,-19,-1.7,14,3602,5,10
O=C(NN=C1CCc2ccccc21)c1ccccc1Cl,3,/,-0.4,/,/,-4,-9
O=C(Nc1ccc(F)cc1)c1nc[nH]c1C(=O)Nc1ccc([N+](=O)[O-])cc1,-13,6,-20,/,2566,15,-6
O=C(c1ccc(S(=O)(=O)N2CCCCCC2)cc1)N1CCN(c2ccccc2F)CC1,3,-12,4.6,9,4964,7,8
O=C(Nc1ccc(Cl)cc1)C1C2CCCCC21 (stereo not drawn),4,-55,5.1,-1,4045,12,7
CCCN1CCN(CCCNC(=O)c2cc3c(=O)[nH]c4ccc(C)cc4c3s2)CC1,-4,-21,0.3,5,4289,0,-4
COC(=O)C1CCCN1C(=O)c1cccs1 (stereo not drawn),-5,4,-0.4,-4,2253,/,/
COc1ccc(-c2cc(C(=O)NN3CCOCC3)c3ccccc3n2)cc1OC,9,4,4.2,-3,?,-3,-6
CC(/C=N/Nc1nncc(=O)[nH]1)=C\c1ccccc1,/,-26,/,-13,9731,/,/
CCOc1ccc(NC(=O)CN(C)C(=O)c2ccccc2SCc2c(C)noc2C)cc1OCC,5,-22,1.0,8,5828,0,2
Cc1cccc(-n2ncc3c(NNC(=O)c4ccco4)ncnc32)c1,0,-21,0.8,-10,5430,1,9
O=c1[nH]cnc2c1ncn2Cc1ccc([N+](=O)[O-])cc1,4,-15,0.7,-1,3023,11,3
Cc1ccc(C)c(SCC(=O)N(C)C2CCS(=O)(=O)C2)c1 (stereo not drawn),-3,-20,-3.7,/,3203,-4,4
O=c1oc2ccccc2c(Nc2cccc(O)c2)c1[N+](=O)[O-],1,-8,5.6,-13,3853,5,4
Cc1cc2oc(=O)cc(CN3CCCCC3C)c2cc1Cl (stereo not drawn),-7,-14,-1.9,4,3883,-5,2
CC1CCCC(C)N1C(=O)COc1cccc(Oc2ccccc2)c1 (stereo not drawn),8,-16,5.6,/,3526,10,7
COc1cccc(NC(=S)NCCN2CCOCC2)c1,4,-18,5.8,18,2402,16,11
O=C1NCC2=C1C(c1ccc(Br)cc1)Nc1ccccc1N2 (stereo not drawn),17,-26,1.3,-6,7999,0,1
CCOC(=O)N1CCN(S(=O)(=O)N2CCCC(C(=O)NCc3ccc(F)cc3)C2)CC1 (stereo not drawn),-1,-27,4.1,6,4240,1,1
Cc1ccc(S(=O)(=O)NCC(=O)N(CC(=O)NC2CCCC2)CC2CCCO2)cc1 (stereo not drawn),4,-5,-1.1,-11,5472,-11,-1
COc1ccc(NC(=O)COC(=O)CCCOc2ccc(Cl)cc2Cl)cc1Cl,8,-5,3.7,1,2446,13,10
COc1ccc(-c2nnc(CSc3nc4ccccc4c(=O)n3CC3CCCO3)o2)cc1OC (stereo not drawn),5,-9,4.0,20,5368,14,-2
CCOc1ccccc1C=Nn1c(C2CCCCC2)n[nH]c1=S,13,/,4.2,/,/,-3,-1
CCCN(CCC)S(=O)(=O)c1ccc(C(=O)Nc2cc3oc4ccccc4c3cc2OC)cc1,-2,-11,4.1,6,2467,3,7
Nc1nc(-c2ccccc2)c(N=Nc2cccc3ccccc23)s1,97*,-17,99*,13,1630,10,7
C[C@H](NC(=O)[C@@H]1Cc2ccccc2CN1C(=O)OC(C)(C)C)C(=O)NCc1ccco1,2,-5,1.2,4,5052,-8,3
COC(=O)c1ccccc1NC(=O)Cn1cnc2c(cnn2-c2ccc(C)c(C)c2)c1=O,4,/,6.0,-4,/,4,2
COCC(C)OC(=O)C(C#N)c1nc2ccccc2nc1N1CCN(Cc2ccccc2)CC1 (stereo not drawn),-5,8,4.4,2,2729,/,/
Cn1c(CS(=O)Cc2c(Cl)cccc2Cl)nnc1SCc1ccc(Cl)cc1 (stereo not drawn),5,-24,-2.7,1,11558,3,2
Cc1onc(-c2ccccc2)c1C(=O)NN=Cc1cn(C)c2ccccc12,-2,/,4.0,/,/,-4,2
COCCN(Cc1cc2cc3c(cc2nc1Cl)OCO3)C(C)=O,4,-13,2.0,4,2566,5,0
Cn1c(=O)c2c(nc(SCCN3CCOCC3)n2Cc2ccccc2Cl)n(C)c1=O,-9,-12,-5.5,1,5471,4,16
COc1ccc(CC2(CO)CCN(Cc3ccc4c(c3)CCO4)CC2)cc1,8,-2,3.6,8,3411,5,5
CCCOc1c(Br)cc(C2C3=C(CCCC3=O)N(CC)C3=C2C(=O)CCC3)cc1OC,-1,-32,0.0,-8,2262,-10,-6
COc1ccc(C(=O)Cn2cc[n+](C)c2)cc1,11,8,-0.9,-5,/,7,7
CC(C)c1ccc(NC(=O)C2C3C=CC4(CN(Cc5cccnc5)C(=O)C24)O3)cc1 (stereo not drawn),10,-22,3.6,-11,2686,-7,6
COc1ccc(CC(=O)Nc2c3c(nn2-c2cccc(C)c2C)CS(=O)C3)cc1OC (stereo not drawn),4,-18,7.4,-7,3098,-7,2
Oc1c(Cl)cc(Cl)cc1/C=N/c1ncn[nH]1,/,-4,/,0,4012,/,/
COc1ccc(-c2nnc3ccc(SCC(=O)NCc4ccco4)nn23)cc1,1,-10,9.2,-5,8467,11,5
O=C(c1c(F)cccc1F)N1CCN(c2cccc(C(F)(F)F)c2)CC1,9,-1,-12,-2,3359,25,14
O=C(c1cccnc1)C1CCCN(Cc2nc(Cc3ccccc3F)no2)C1 (stereo not drawn),-4,-22,1.4,6,2270,-1,3
NC(=O)N/N=C/c1cccc(C(F)(F)F)c1,/,-9,/,18,4185,/,/
Cc1cc(C)nc(NC(=O)c2ccc(C)c(C)c2)n1,4,-13,1.4,-3,4030,11,-3
COc1ccc(C(=O)Nc2c(N)nc[nH]c2=O)cc1,6,-19,5.5,2,6138,7,11

# Structures shown so far that contain a nitro group on carbon, in the order listed:
SMILES,Sa ugtP lethal,PrP 5UTR inh,RN4220 kill,BJeLR viability,Bead autofluor,Mtb hypoxia rep,Mtb hypoxia rep growth
O=C(Nc1ccc(F)cc1)c1nc[nH]c1C(=O)Nc1ccc([N+](=O)[O-])cc1,-13,6,-20,/,2566,15,-6
O=c1[nH]cnc2c1ncn2Cc1ccc([N+](=O)[O-])cc1,4,-15,0.7,-1,3023,11,3
O=c1oc2ccccc2c(Nc2cccc(O)c2)c1[N+](=O)[O-],1,-8,5.6,-13,3853,5,4

# (listing goes on)
SMILES,Sa ugtP lethal,PrP 5UTR inh,RN4220 kill,BJeLR viability,Bead autofluor,Mtb hypoxia rep,Mtb hypoxia rep growth
O=C(Nc1ccccn1)c1ccc(=O)[nH]n1,-1,-18,-2.5,-4,2633,/,/
O=C(Nc1ncccn1)C1=C(O)c2ccccc2S(=O)(=O)N1Cc1ccccc1,1,-17,6.2,1,3919,3,-1
CCc1ccccc1NC(=S)N=C(N)Nc1nc(C)c2cc(C)ccc2n1,-11,/,12,/,/,0,3
CC1=NN(Cc2ccccc2)C(=O)C1C(c1ccc(Cl)cc1)C(C#N)C#N (stereo not drawn),6,-16,10,-4,2025,0,-1
Cc1ccccc1CNC(=O)CN(c1ccccc1Cl)S(C)(=O)=O,6,-26,3.6,9,3959,16,1
CCC(=O)N1c2ccc(S(=O)(=O)N3CCN(C)CC3)cc2CC1C (stereo not drawn),2,-5,-0.6,4,5855,-4,-4
CCC(C)[C@H](NC(=O)N1CC(=O)Nc2ccccc21)C(=O)N1CCC(C(=O)O)CC1 (stereo partly drawn),17,-1,5.8,-4,4639,7,-9
Cn1cc(CCC(=O)N2CCCC(CCC(=O)NCc3ccc(F)c(F)c3)C2)cn1 (stereo not drawn),6,-27,1.7,0,2504,-7,4
CN(C)C(=O)CSc1nnc(-c2ccc(F)cc2)c2ccccc12,5,0,2.6,8,3685,10,6
Cc1cc(C2(c3ccc(O)c(C)c3)C(=O)Nc3ccccc32)ccc1O,-26,-17,-2.6,-3,2679,/,/
Cc1ccc(CNC(=O)CS(=O)(=O)c2ccccc2)cc1,9,-35,2.3,-13,2310,10,14
O=C(CSc1nnc(CNC(=O)c2ccco2)o1)Nc1ccc(F)cc1F,-3,-8,-1.8,-6,5732,0,14
CSCC(CO)NS(=O)(=O)c1ccc(C)cc1 (stereo not drawn),9,-22,2.0,-3,?,-1,-16
CSc1ccccc1OCc1cc(C(=O)NCCN2CCCC(O)C2)no1 (stereo not drawn),-7,-9,-2.3,6,5622,-5,-7
COc1ccc(N2CC(C(=O)NN=Cc3c[nH]c4ccccc34)CC2=O)cc1 (stereo not drawn),2,/,8.4,/,/,6,7
COc1cc(/C=N/OCC(=O)NC2CCS(=O)(=O)C2)ccc1OC(F)F (stereo not drawn),/,-13,/,-11,4067,/,/
Cc1ccccc1NC(=O)/C(=C\c1cccs1)NC(=O)c1ccccc1,2,-4,3.7,1,3308,9,4
COc1ccc(OC)c(C(=O)c2ccccn2)c1,1,-20,4.2,-5,3902,13,6
CCOC(=O)Cc1c(C)c2ccc(N(CC)CC)cc2oc1=O,16,-18,6.7,3,9303,6,1
CS(=O)(=O)N(CC(=O)N1CCCC1)c1cc(Cl)ccc1Cl,4,-41,5.4,7,3514,18,13
CC(C)c1ccc(NC(=O)CCNC(=O)Cn2ccc3ccccc3c2=O)cc1,3,-3,4.6,-6,5414,0,3
Cc1cc(Cl)ccc1OCCn1cncn1,-1,-23,5.1,1,2125,11,-4
O=C(COC(=O)Cc1ccc(Cl)cc1)NCc1ccc(F)cc1,5,-17,2.6,/,8380,14,-2

# Compound profiles, from the list above.
# Results for CS(=O)(=O)N(CC(=O)N1CCCC1)c1cc(Cl)ccc1Cl → Sa ugtP lethal: 4; PrP 5UTR inh: -41; RN4220 kill: 5.4; BJeLR viability: 7; Bead autofluor: 3514; Mtb hypoxia rep: 18; Mtb hypoxia rep growth: 13
# Results for O=C(Nc1ncccn1)C1=C(O)c2ccccc2S(=O)(=O)N1Cc1ccccc1 → Sa ugtP lethal: 1; PrP 5UTR inh: -17; RN4220 kill: 6.2; BJeLR viability: 1; Bead autofluor: 3919; Mtb hypoxia rep: 3; Mtb hypoxia rep growth: -1

# Assay outcomes (PubChem)
